Source: PubChem BioAssay (National Center for Advancing Translational Sciences (NCATS))
p53null 32C tox: qHTS Screen for Compounds that Selectively Target Cancer Cells with p53 Mutations: Cytotoxicity of p53 Null Cells at the Permissive Temperature; Potency, µM (doses to about 46.1 µM), for the others: top-dose activity change, negative = cytotoxicity, hits mostly cytotoxic; 55,000 tested, 0.62% active; H1299-neo p53 null cells, ATP luminescence, 24 h, 32C;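 note: potency is the fitted concentration of half-maximal effect; 0% = DMSO only and -100% = full killing by 100 µM tamoxifen; nearly all actives have a fitted effect of over 55% in size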
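Overnight 37C seeding (600 cells/well) of H1299-neo preceded a 24 hr, 32C exposure to compounds up to 46 uM. ATP levels, read by luminescence after 20 min at RT, indicated surviving cells.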
p53null 39C tox: qHTS Screen for Compounds that Selectively Target Cancer Cells with p53 Mutations: Cytotoxicity of p53 Null Cells at the Nonpermissive Temperature; H1299 p53-null (neo) cells, 39C, ATPlite viability, 24 h; Potency, µM (series often up to 46.1 µM), for the others: at the top dose activity, negative = cell killing, most hits filed as cytotoxic; 55,000 tested, 0.97% active; AID 904, 2007;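 note: potency is the fitted concentration of half-maximal effect; 0% = DMSO only and -100% = full killing by 100 µM tamoxifen; nearly all actives have a fitted effect of over 50% in size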
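ATP-luminescence viability readout (ATPlite, 20 min RT) after 24 hr compound treatment at 39C of H1299-neo or H1299-p53A138V cells; titration up to 46 uM; normalized to DMSO and 100 uM tamoxifen; Hill-fit AC50.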
GALK inhibitor: qHTS Assay for Inhibitors of Human Galactokinase (GALK): NCGC Sytravon Library Screen; P51570; recombinant GALK, Kinase-Glo ATP luminescence, 1 h; Potency, µM (doses to about 57.5 µM), inactives show top-dose activity, negative = inhibition, most hits filed as inhibitors; 44,000 tested, under 10 active; AID 1347072, 2019;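 note: plate controls were full GALK reaction for no effect and reaction lacking GALK for full effect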
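Human GALK (5 nM) was incubated with 35 uM ATP and 100 uM galactose in 20 mM HEPES pH 8.0 with MgCl2, NaCl, DTT and BSA for 1 h at room temperature. Remaining ATP was measured by Kinase-Glo Plus luminescence.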
PTAP-TSG101 blk: qHTS Validation Assay for Inhibitors of HIV-1 Budding by Blocking the Interaction of PTAP/TSG101: Sytravon Library Screen. Potency, µM (series often up to 115 µM), inactives show top-dose activity change, negative = inhibition, actives largely listed as inhibitors. Fluorescence polarization, FITC-PTAP peptide/Tsg101, 20 min. AID 1347069, 2019. 44,000 tested, under 10 active; note: potency is the fitted concentration of half-maximal effect; 0% is about no effect
Target sequence (Q99816 whole entry, looked up): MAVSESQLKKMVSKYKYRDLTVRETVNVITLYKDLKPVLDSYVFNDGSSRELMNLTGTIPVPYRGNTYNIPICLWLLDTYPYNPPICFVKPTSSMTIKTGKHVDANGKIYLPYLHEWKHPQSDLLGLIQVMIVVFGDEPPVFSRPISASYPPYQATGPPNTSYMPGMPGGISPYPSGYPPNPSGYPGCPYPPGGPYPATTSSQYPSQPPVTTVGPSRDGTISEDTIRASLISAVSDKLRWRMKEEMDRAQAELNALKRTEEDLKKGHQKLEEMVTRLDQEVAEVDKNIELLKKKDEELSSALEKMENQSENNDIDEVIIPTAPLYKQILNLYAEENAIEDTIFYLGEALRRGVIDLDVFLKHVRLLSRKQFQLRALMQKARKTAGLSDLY
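The Tsg101 binding domain, at 10 uM final, is mixed with compound and a FITC peptide bearing the PTAP motif (50 nM final). After 20 min at r.t., polarization is measured; actives defined by CRC class, efficacy cut-off 60% inhibition.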
FH mod: Identification of activators of human fumarate hydratase by quantitative high-throughput screening | Fumarate hydratase, mitochondrial (Homo sapiens), P07954 | AID 1347055, 2019 | 54,000 tested, 0.22% active | FH coupled MDH/diaphorase resazurin fluorescence, 15 min | Potency, µM (top dose mostly 79.9 µM), for inactives: at the highest dose activity change, negative = inhibition, most hits filed as inhibitors; note: potency is the fitted concentration of half-maximal effect; % is set by controls: 0 for no effect and ±100 for the full control effect; the screen sought activators but most active calls are inhibition curves; nearly all actives have a fitted effect of over 45% in size
B2AR arrestin ag: qHTS assay of beta-arrestin-biased ligands of beta2-adrenergic receptor: NCGC Sytravon Library Screen; Beta-2 adrenergic receptor (Homo sapiens), P07550; HTLA Tango cells, beta-arrestin recruitment, luciferase luminescence, 18 h; Potency, µM (titrated, usually from 46.1 µM), for inactives: top-dose activation, actives largely listed as activators; 44,000 tested, under 10 active; AID 1347077, 2019;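 note: potency is the fitted concentration of half-maximal effect; 0% = DMSO and full agonism = EC100 isoproterenol or metaproterenol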
Target sequence (P07550 whole entry, looked up): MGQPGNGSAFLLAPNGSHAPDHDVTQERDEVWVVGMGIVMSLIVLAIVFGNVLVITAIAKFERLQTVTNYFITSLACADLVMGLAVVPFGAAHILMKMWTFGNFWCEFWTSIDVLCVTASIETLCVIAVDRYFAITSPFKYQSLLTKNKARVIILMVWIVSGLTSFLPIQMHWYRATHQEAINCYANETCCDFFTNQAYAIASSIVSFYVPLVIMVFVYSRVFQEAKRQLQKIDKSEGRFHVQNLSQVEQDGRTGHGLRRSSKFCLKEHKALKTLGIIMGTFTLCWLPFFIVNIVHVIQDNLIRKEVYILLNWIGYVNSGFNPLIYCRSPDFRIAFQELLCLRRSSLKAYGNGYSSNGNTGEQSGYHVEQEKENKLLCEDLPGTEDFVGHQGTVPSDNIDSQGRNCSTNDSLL
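Tango cells expressing recombinant beta2-AR and beta-arrestin were treated with compounds (up to 46 microM titration) in DMEM with 1% FBS for 18 hr at 37 degrees C. Beta-arrestin recruitment drove tTA-dependent luciferase, read by luminescence; curves were fitted and classed.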
An asterisk follows results filed as active; ? = inconclusive; . = no result given; [ ] = remark or other dose. Calls come from the whole dose curve; as a rule, active = well fitted curve in the direction sought with a large enough effect; inconclusive = small, poorly fitted or top-dose-only effect, or another doubt; inactive = no such curve, though single readings can be large; an effect the other way counts as inactive or inconclusive.

SMILES	p53null 32C tox	p53null 39C tox	GALK inhibitor	PTAP-TSG101 blk	FH mod	B2AR arrestin ag
COc1ccc(OC)c(C2NC(=O)NC(C)=C2C(=O)Nc2ccc(F)cc2)c1 (stereo not given)	3.5%	-7.3%	-1.2%	-1.0%	0.1%	-2.1%
CCOC(=O)c1cccc(NC(=O)c2cc3c(=O)n(Cc4cccnc4)ccc3nc2C)c1	1.1%	2.6%	1.7%	1.4%	?	-0.1%
CCNS(=O)(=O)c1ccc(NC(=O)CSc2nc(-c3ccco3)cc(C(F)(F)F)n2)cc1	26.8%	-13.8%	0.0%	-2.0%	2.6%	0.4%
COC(=O)c1c(NC(=O)Nc2ccc(Cl)cc2)sc(C)c1C	-3.1%	-13.8%	0.5%	-3.1%	11.0%	0.8%
O=C(Nc1ccc2c(c1)CCCN2C(=O)c1cccs1)c1ccccc1	?	?	-1.9%	3.6%	-25.3%	-1.3%
CC(=O)Nc1ccc(NC(=O)c2cc3c(=O)n(Cc4cccnc4)ccc3nc2C)cc1	-1.1%	7.1%	3.5%	-1.3%	5.4%	-0.2%
COc1ccc(C2NC(=O)N(C)C3=C2C(=O)N(c2ccc(F)cc2)C3)cc1 (stereo not given)	-5.1%	10.4%	?	-2.4%	6.0%	0.8%
CCc1cc2c(cc3c(=O)n(CC(=O)NCc4cc(Br)ccc4OC)ncn32)s1	-2.9%	-3.2%	4.7%	0.6%	-10.9%	0.3%
COc1ccc(S(=O)(=O)NCCc2sc(-c3cccnc3)nc2C)cc1	1.8%	18.2%	0.9%	-2.4%	-0.9%	0.1%
Cc1ccc(NC(=O)c2c(Nc3ccccc3C)sc(C(=O)c3ccccc3)c2N)cc1	-1.1%	11.8%	-6.5%	-7.6%	9.6%	-2.4%
COc1cccc(Nc2sc(C(=O)c3ccc(F)cc3)c(N)c2C(=O)NCc2ccc(Cl)cc2)c1	3.2%	-6.2%	-1.9%	0.8%	-19.3%	-2.8%
CC(=O)c1cc(-c2ccccc2)n(CC(=O)NC2CCCCCC2)c1C	14.5%	13.7%	-0.3%	3.3%	-7.2%	5.8%
COc1cccc(NC(=O)CCSc2nc(-c3ccco3)cc(C(F)(F)F)n2)c1	12.7%	-13.6%	5.0%	-7.7%	-11.0%	1.0%
COc1ccc(NC(=O)CCSc2nc(-c3ccco3)cc(C(F)(F)F)n2)cc1	-0.5%	-27.9%	3.8%	2.4%	-7.4%	0.9%
CCCOc1ccc(C2c3c(-c4ccccc4O)n[nH]c3C(=O)N2CCCOCC)cc1OCC (stereo not given)	12.0%	39.8%[activator]	-13.0%	-9.3%	-23.3%	-0.3%
Cc1cccc(C)c1NC(=O)C1CCCN1S(=O)(=O)c1ccccc1 (stereo not given)	-4.1%	4.5%	-5.3%	3.2%	7.6%	0.3%
CCOc1ccc(NC(=O)Cn2cc(C(=O)c3ccc(F)cc3)c(=O)c3cc4c(cc32)OCO4)cc1	?	-22.6%	?	1.2%	2.5%	0.9%
CC(=O)c1ccc(N2CCN(c3ccc4cc(S(=O)(=O)N5CCC(C)CC5)ccc4n3)CC2)cc1	-7.0%	-3.1%	2.0%	-3.4%	9.6%	-0.9%
Cc1ccc(CN2C(=O)C3(c4ccccc42)N(c2cccc(C(F)(F)F)c2)C(=O)CS3(=O)=O)cc1 (stereo not given)	12.7%	17.7%	0.0%	-2.6%	-18.9%	1.9%
CCc1ccc(Nc2nc3ccccc3nc2NS(=O)(=O)c2ccccc2)cc1	-18.9%	4.5%	-15.1%	-0.2%	-23.7%	-0.8%
CC(C)c1ccc(N2C(=O)CS(=O)(=O)C23C(=O)N(Cc2cccc(F)c2)c2ccccc23)cc1 (stereo not given)	11.0%	-14.5%	-1.8%	-2.1%	-16.1%	0.6%
CCOc1ccccc1NC(=O)CCn1c(-c2ccc(OC)cc2)cc(C(C)=O)c1C	-6.2%	0.6%	1.4%	-2.5%	-7.0%	-1.2%
COc1ccc(F)cc1S(=O)(=O)Nc1ccc2c(c1)CCCN2C(=O)c1cccs1	22.4%	10.9%	-4.8%	-9.0%	-6.0%	1.3%
COc1ccc(OCc2nc3ccccc3n2Cc2ccccc2Cl)cc1	15.6%	10.6%	1.1%	0.8%	-1.9%	1.1%
COC(=O)c1ccc(NC(=O)CC2C(=O)N(c3ccccc3)C(=O)N2Cc2ccco2)cc1 (stereo not given)	-4.5%	4.1%	-2.7%	3.2%	-17.9%	6.4%
COc1ccc(NC(=O)c2cc3c(=O)n(Cc4cccs4)ccc3nc2C)c(OC)c1	9.1%	7.9%	5.0%	1.0%	-11.7%	-0.8%
O=c1cc(-c2ccccc2)nc2cc(-c3ccc(F)cc3)[nH]n12	?	?	-1.2%	-5.9%	-9.5%	1.4%
Cc1nn2c(C)c(C(=O)NCc3ccc(OC(C)C)cc3)cnc2c1-c1ccc(F)cc1	-4.0%	-2.2%	-1.7%	0.4%	13.7%	-0.1%
COc1ccc(-c2nc(C)c(CCNS(=O)(=O)c3cc(Cl)ccc3Cl)s2)cc1	19.7%	14.1%	1.1%	2.8%	?	0.5%
COc1ccc(-c2cc3ncc(C(=O)c4cc([N+](=O)[O-])ccc4O)cn3n2)cc1	.	.	9.5%	0.8%	-17.4%	0.2%
COc1ccccc1NC(=O)c1c(C)cc(C)nc1SCC(=O)c1ccc(Cl)cc1	-8.9%	-15.1%	-4.4%	-3.6%	4.4%	-3.6%
Cc1ccc(-n2nnnc2SCC(=O)NCCc2ccccc2)cc1C	-14.5%	-13.6%	3.1%	-2.5%	-8.5%	0.5%
CC1=C(C(=O)N2CCCCC2)C(c2cccc(Cl)c2)n2c(nc3ccccc32)N1 (stereo not given)	3.5%	5.6%	5.3%	-13.3%	-5.8%	-0.4%
CCOc1cc(CNCCSc2nnnn2-c2ccccc2)cc(Cl)c1OC	13.5%	19.4%	-4.7%	-3.8%	-19.9%	-1.7%
COc1ccc(CNC(=O)c2cc(-c3ccc(Cl)cc3)n[nH]2)cc1	-6.9%	-18.8%	-2.0%	-0.7%	-1.7%	-0.9%
CC1CCN(S(=O)(=O)c2cc(C(=O)NCc3ccccc3)n(C)c2)CC1	-1.6%	-7.9%	-3.0%	-6.0%	-15.4%	-0.9%
CCOC(=O)c1noc2ncnc(Nc3cccc(C(F)(F)F)c3)c12	5.0%	-6.0%	1.7%	-2.5%	-5.0%	-0.4%
Cc1ccc(OCc2cc(=O)n3c4c(sc3n2)CCCC4)cc1C	-6.6%	-8.3%	-1.8%	-1.7%	-3.4%	0.6%
Cc1ccc2c(CC(=O)Nc3ccc(S(=O)(=O)N4CCCCC4C)cc3)coc2c1 (stereo not given)	24.1%	11.1%	-2.8%	8.5%	-24.2%	0.4%
CSc1cccc(Nc2cc(C(=O)NCCCN(Cc3ccccc3)C(C)C)c3ccccc3n2)c1	?	31.0%[activator]	1.5%	-8.2%	-23.0%	-2.0%
Cn1nc(C(C)(C)C)cc1C(=O)N[C@@H](Cc1cccc(Cl)c1)C(=O)NCC#N	.	.	.	.	3.1%	.
Cc1ccccc1CN1C(=O)C2(c3ccccc31)N(c1ccccc1)C(=O)CS2(=O)=O (stereo not given)	9.5%	-15.7%	3.1%	0.7%	-31.2%	-0.4%
CCOc1ccccc1CNc1nc2nc(C)c(CC(=O)OC)c(=O)n2[nH]1	-0.8%	23.2%	1.2%	-22.0%	8.3%	4.8%
Cc1ccccc1Nc1sc(C(=O)c2ccc(F)cc2)c(N)c1C(=O)NCCc1ccccc1	-0.3%	7.3%	-1.0%	-0.5%	21.0%	-2.3%
CCOCCCN(Cc1ccco1)S(=O)(=O)c1cc2c(cc1Cl)NC(=O)CO2	0.5%	13.7%	0.2%	0.6%	-10.1%	-1.0%
CCC(=O)Nc1cc(-c2nc3ccccc3s2)c(Cl)cc1Cl	-19.8%	-7.0%	-0.7%	-2.2%	2.3%	-1.5%
CCc1ccc(C(=O)c2cn(CC(=O)Nc3ccc(OC)cc3)c3cc4c(cc3c2=O)OCO4)cc1	7.6%	-12.4%	-0.9%	1.9%	-6.8%	0.5%
COc1cc(/C=C/c2nc(C#N)c(NC(C)c3ccccc3)o2)cc(OC)c1OC (stereo not given)	19.7%	12.5%	-2.6%	-3.3%	?	0.0%
CC(=O)c1cc(-c2ccc(F)cc2)n(CC(=O)NC2CCCCCC2)c1C	8.3%	-3.7%	-0.6%	1.0%	2.6%	-1.3%
CC(=O)O[C@@H]1C(=O)O[C@@H]2[C@H]1OC(=O)[C@@H]2OC(C)=O	.	.	.	.	-1.8%[53.3 µM]	.
Cc1ccc(NC(=O)Cn2c(-c3ccc4c(c3)OCO4)cn(-c3ccccc3)c2=O)cc1C	-1.3%	-17.2%	3.1%	1.5%	-14.3%	0.8%
COc1ccc(-c2ccc3c(N)c(C(=O)Nc4ccc(C(F)(F)F)cc4)sc3n2)cc1OC	6.3%	-4.4%	0.0%	12.4%	-0.7%	0.0%
COc1cccc(C(=O)Nc2ccc3c(c2)CCCN3C(=O)c2cccs2)c1OC	-28.8%	-32.4%	0.5%	-10.0%	-8.9%	1.1%
O=c1cc(CSc2n[nH]c(-c3ccccc3)n2)[nH]c2ccccc12	7.3%	-4.3%	-0.3%	-6.2%	-13.8%	-0.2%
CCc1nnc(SCC(=O)N(CC)c2ccccc2)c2cc3oc(C)cc3n12	3.1%	?	1.3%	-11.0%	1.2%	4.0%
CN(C)CCNC(=O)c1ccc2nc(Cc3ccccc3)oc2c1	-3.7%	-5.6%	-1.0%	-4.7%	-2.8%	0.1%
CCOCCCn1c(=N)c(C(=O)NCc2cccnc2)cc2c(=O)n3ccccc3nc21	-2.6%	33.9%[activator]	1.0%	-2.5%	1.4%	0.4%

Entries shown so far with two or more sulfur atoms, in the order listed:
SMILES	p53null 32C tox	p53null 39C tox	GALK inhibitor	PTAP-TSG101 blk	FH mod	B2AR arrestin ag
CCNS(=O)(=O)c1ccc(NC(=O)CSc2nc(-c3ccco3)cc(C(F)(F)F)n2)cc1	26.8%	-13.8%	0.0%	-2.0%	2.6%	0.4%
COc1ccc(S(=O)(=O)NCCc2sc(-c3cccnc3)nc2C)cc1	1.8%	18.2%	0.9%	-2.4%	-0.9%	0.1%
COc1ccc(F)cc1S(=O)(=O)Nc1ccc2c(c1)CCCN2C(=O)c1cccs1	22.4%	10.9%	-4.8%	-9.0%	-6.0%	1.3%
COc1ccc(-c2nc(C)c(CCNS(=O)(=O)c3cc(Cl)ccc3Cl)s2)cc1	19.7%	14.1%	1.1%	2.8%	?	0.5%

Only part of the results is shown (hit frequency here may not be typical).
